Source: PubChem BioAssay
Mtb bLac sens – beta-lactam sensitization of Mtb H37Rv, H37Rv. M. tuberculosis H37Rv growth with meropenem, percent inhibition; hits of this screen are not shown here. inhibition, % at 25 µM. 330,000 tested, 0.27% active. AID 434955, 2010;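 active = about 74% or more and at least 40 points above the plate without the antibiotic, then above 30% in a dose series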;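 note: growth measured after seven days incubation then overnight dye step; 0% = bacteria only wells and 100% = bacteria with antibiotic; twin plates without the antibiotic show which effects depend on it; some results filed as inactive read as strong as hits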
* hit, by the source's call.

SMILES	Mtb bLac sens
Cc1nc2cc(NC(=O)c3cccc(S(C)(=O)=O)c3)ccc2o1	0.1
CC(C)(CN1CCNCC1)NS(=O)(=O)c1ccc(Cl)cc1	4.4
CCCCn1nc(C(=O)NCC(=O)Nc2c(C)cccc2C)c2ccccc2c1=O	-0.1
Cc1ccsc1CN(C)C(=O)CN1C(=O)NC2(CCCc3ccccc32)C1=O (stereo not given)	12.1
COc1ccc(S(=O)(=O)NNc2nc(C)cc(C)n2)cc1Br	-0.7
CCOc1ccc(S(=O)(=O)N2CCOCC2)cc1NC(=O)CN1C(=O)NC2(CCCCC2)C1=O	-12.5
C=CC[C@]12CCc3ccccc3C1N(c1ccc(C(=O)OCC)cc1)C2=O (stereo not given in full)	11.9
CC(C)(C)OC(=O)C[C@H]1C/C=C\C[C@H](CC(=O)NCCO)C(=O)N2CCC[C@@H]2COC1=O	7.1
Cc1nnc(SCC(=O)NC2CCCC(C)C2C)n1N (stereo not given)	-6.4
CCOC(=O)[C@H]1[C@H]2COc3ccccc3[C@@H]2N2C(=O)c3cc(OC)c(OC)cc3NC(=O)[C@@]12C	-3.5
Cc1cc(C)c(NC(=O)COC(=O)c2ccncc2)c(C)c1	-10.3
O=C(COC(=O)c1ccc(Cl)nc1)NC1CCCc2ccccc21 (stereo not given)	-0.1
O=C(COC(=O)/C=C/c1cccc(C(F)(F)F)c1)NC1CCS(=O)(=O)C1 (stereo not given)	-7.5
COc1ccccc1CNC(=O)COC(=O)c1cccs1	-11.2
COc1cc(C#Cc2c(-c3cncn3C)n(C)c3ccc(-c4cnc(OC)nc4)cc23)cc(OC)c1	99.9
CCOc1cc(C(=O)OCC(=O)Nc2cccc(S(=O)(=O)NC3=NCCCCC3)c2)cc(OCC)c1OCC	0.3
C[C@H](CO)N1C[C@H](C)[C@@H](CN(C)S(=O)(=O)c2cn(C)cn2)Oc2ccc(NC(=O)Cc3ccccc3)cc2C1=O	-1.7
Nc1cc(=O)[nH]c(SCC(=O)N2CCCC2)n1	-9.4
CC(=O)OC/C=C(\C)CCC=C(C)C	-11.8
COC(=O)C1=C(c2cccc(OCc3ccccc3)c2)C[C@@H]2CC[C@H]1N2C(=O)NCCOc1ccccc1	-12.8
COc1cccc(-c2ncc3ccccc3c2COC(=O)CCC(=O)O)c1	-0.6
COc1ccc2[nH]c(C)c(CCNCc3cc(OC)c4c(c3)OCO4)c2c1	-3.9
Cc1ccc(OCC(=O)NCCCNC(=O)c2ccncc2)cc1	0.4
CC1(CCc2ccccc2)NC(=O)N(CC(=O)Nc2ccccc2C#N)C1=O (stereo not given)	-11.2
Cc1occc1C(=O)N/N=C/c1cccc2ccccc12	-3.4
Cc1ccc(NC(=O)c2cccs2)cc1NC(=O)c1cccc(F)c1	1.5
COc1ccc(CC(=O)NNC(=O)COc2ccc(F)cc2)cc1S(=O)(=O)N1CCOCC1	-12.3
O=c1[nH]oc2c1CCNC2	7.0
Cc1ccc2c(c1)C(=O)C(=O)N2Cc1ccc(F)cc1	4.4
COCC(C)n1c(C)cc(C(=O)CSc2nnc(-c3ccco3)o2)c1C (stereo not given)	5.8
O=C(CSc1ccc([N+](=O)[O-])cc1)Nc1nnc(C2CC2)s1	-2.4
COc1ccc(CCNC(=O)c2ccc(OC)c(OC)c2)cc1OC	-10.0
O=C(COC(=O)c1ccccc1Cl)Nc1cccnc1Cl	0.6
CCOc1ccc(NC(=O)[C@@H]2CCCN2C(=O)c2cccs2)cc1S(=O)(=O)N1CCOCC1	-5.7
O[Si](CCCN1CCCCC1)(c1ccc(F)cc1)C1CCCCC1 (stereo not given)	63.4
C[C@@H]1CN([C@H](C)CO)C(=O)c2cc(NC(=O)Nc3ccc(C(F)(F)F)cc3)ccc2O[C@H]1CN(C)S(=O)(=O)c1ccc(Cl)cc1	73.7
NC(=O)C1CCCN(C(=O)c2ccc(NC(=O)c3cccs3)cc2)C1 (stereo not given)	100.1
C=CC[C@H](CC(=O)OC(C)(C)C)C(=O)OC[C@H]1CCCN1C(=O)[C@H](CC=C)CC(=O)N(CCO)Cc1ccccc1	-0.5
C/C=C1/C[N+]2(C)CCC34C(=C(C=O)[C@H]1C[C@@H]32)Nc1ccccc14 (stereo not given in full)	0.2
COc1ccc(C2(C)NC(=O)N(CC(=O)c3cc(C)n(C4CC4)c3C)C2=O)cc1OC (stereo not given)	3.2

Some of these compounds in order of SMILES length, ascending.
SMILES	Mtb bLac sens
Cc1occc1C(=O)N/N=C/c1cccc2ccccc12	-3.4
Cc1ccc(NC(=O)c2cccs2)cc1NC(=O)c1cccc(F)c1	1.5
C[C@@H]1CN([C@H](C)CO)C(=O)c2cc(NC(=O)Nc3ccc(C(F)(F)F)cc3)ccc2O[C@H]1CN(C)S(=O)(=O)c1ccc(Cl)cc1	73.7

Next section:
SMILES	Mtb bLac sens
Cc1nn(CC(=O)N(C)C2CCS(=O)(=O)C2)c(C)c1S(=O)(=O)N(C)C (stereo not given)	1.2
O=C(CN1CCCN(S(=O)(=O)c2ccc(F)cc2)CC1)Nc1c(Cl)cccc1Cl	-5.4
O=C(CSc1ccccc1F)NNC(=O)c1cncc(Br)c1	-1.6
CCC(CO)Oc1cc(NC(=O)c2ccccc2C)c2ncn(C(C)C)c2c1 (stereo not given)	-7.0
O=C(Cn1nnc(-c2ccccc2F)n1)N1CCCCC1	-4.8
CCn1c(SCC(=O)Nc2nncs2)nnc1C(C)NC(=O)c1ccccc1Br (stereo not given)	-0.6
COc1cccc(/C=C/C(=O)OCC(=O)NCCNC(=O)COC(=O)/C=C/c2cccc(OC)c2)c1	-3.8
COc1cc2cc(CCOC(=O)CCCC(=O)O)oc(=O)c2cc1OC	-8.1
CCOCCCNC(=O)CN1CCN(S(=O)(=O)c2ccc3c(c2)CCC3)CC1	-7.4
COc1ccc(Br)cc1/C=C/C(=O)OCC(=O)NCCc1ccc(S(N)(=O)=O)cc1	-1.1
CCOC(=O)[C@@H]1[C@H]2COc3cc(OC)ccc3[C@@H]2N2C(=O)N(c3ccccc3)C(=O)[C@@]12C	-1.3
COc1ccc(C(=O)COC(=O)[C@@H](NS(=O)(=O)c2ccccc2)C(C)C)cc1	10.1
CCOC(=O)C1=C(COC(=O)C(C)(C)Oc2ccc(Cl)cc2)NC(=O)NC1C (stereo not given)	-2.3
CC(C)c1ccc(CSc2ccc(S(=O)(=O)N3CCOCC3)cn2)cc1	-4.0
COc1ccc(S(=O)(=O)N(C)C[C@H]2Oc3c(NC(=O)Nc4c(C)noc4C)cccc3C(=O)N([C@@H](C)CO)C[C@H]2C)cc1	1.2
Cc1ccccc1C(=O)NC(=S)N(Cc1ccccc1)c1ccccn1	-5.1
Cc1cccn2c(=O)c3cc(C(=O)N4CCN(Cc5ccccc5)CC4)sc3nc12	-1.9
O=C1c2ccc(-c3ccc(F)cc3OCc3ccccc3)cc2S(=O)(=O)c2cccc(C(=O)N3CCN(c4ncc(Br)cn4)CC3)c21	6.7
CC(=O)Nc1cccc(C(=O)OCC(=O)NC2CCCCCCC2)c1	1.6
O=C(Cn1cc([N+](=O)[O-])ccc1=O)NCC1COc2ccccc2O1 (stereo not given)	1.2
O=C(CN1c2cccc3cccc(c23)S1(=O)=O)N1CCN(c2ccc(F)cc2)CC1	1.2
Cc1cccc(C(=O)NCC(=O)N2CCN(c3ccccn3)CC2)c1	0.1
C[C@H](CO)N1C[C@H](C)[C@@H](CN(C)C(=O)Nc2ccc(C(F)(F)F)cc2)Oc2ccc(NC(=O)CCC(F)(F)F)cc2C1=O	-3.3
Ic1ccccc1CN[C@@H]1C2CCN(CC2)[C@@H]1C(c1ccccc1)c1ccccc1	95.9
CN(C(=O)c1cccc(NC(=O)Cc2ccc([N+](=O)[O-])cc2)c1)C1CCCCC1	4.5
COc1ccc(/C=C/C(=O)OCC(=O)NC2CCCCC2C)c(OC)c1 (stereo not given)	2.6
COc1ccc(CCN(C)C(=O)c2ccc(C)c(S(=O)(=O)N3CCCCC3)c2)cc1OC	-3.2
O=C(COC(=O)c1cccs1)Nc1cccc(Cl)c1	3.4
O=C(CC1C[C@H](C(=O)N2CCCCC2)[C@@]2(CCc3ccccc3)c3[nH]c4ccccc4c3CCN2C1=O)NCCC1=CCCCC1 (stereo not given in full)	2.5
Cc1cc(C)cc(N(CCC#N)C(=O)COC(=O)C2CCN(c3ccc(C(F)(F)F)cn3)CC2)c1	-7.7
COc1ccc(-n2nnnc2SCC(=O)Nc2c(C)n[nH]c2C)cc1	-1.0
O=C(NC1CCCCC1)c1n[nH]c2c1CCCCC2	6.8
O=C(COC(=O)c1ccc2ccccc2n1)Nc1ccccc1Br	13.8
CC(=O)Nc1ccc(NC(=O)COC(=O)COc2ccc3ccccc3c2)cc1	7.1
COC(=O)C1=C(c2ccc(C(C)=O)cc2)C[C@@H]2CC[C@H]1N2C(=O)NCc1ccc(F)cc1	2.0
CCCNC(=O)N1[C@H]2CC[C@@H]1C(C(=O)OC)=C(c1ccc(OC)c(OC)c1)C2	-7.0
NC(=O)c1cc([N+](=O)[O-])ccc1NCc1cccc([N+](=O)[O-])c1	0.5
COc1ccccc1C(CNC(=O)c1ccc(OCc2c(C)noc2C)cc1)N1CCCC1 (stereo not given)	-14.5
O=C(COC(=O)Cc1ccc(S(=O)(=O)N2CCOCC2)s1)Nc1ccc([N+](=O)[O-])cc1	-1.4
CCn1c(SCC(=O)NNC(=O)c2ccc(OC)cc2)nnc1C1CC1	1.8
C[C@H](CO)N1C[C@H](C)[C@@H](CN(C)C(=O)NC2CCCCC2)Oc2c(NS(=O)(=O)c3ccccc3)cccc2C1=O	-9.3
CN(c1ccc(F)cc1)S(=O)(=O)c1ccc(Cl)c(C(=O)NC2(C)CCS(=O)(=O)C2)c1 (stereo not given)	-1.2
Nc1c(N(Cc2ccco2)C(=O)COc2ccccc2Cl)c(=O)[nH]c(=O)n1Cc1ccccc1	4.1
O=C(c1cc2ccccc2o1)N1CCN(S(=O)(=O)c2ccc(F)c(F)c2F)CC1	-5.8
COc1ccc(C(=O)N(C)C2CCCCC2)cc1S(=O)(=O)N1CCOCC1	-0.4
COc1cccc(C(=O)O[C@H]2[C@H](Cc3ccccc3)NS(=O)(=O)[C@H]3C[C@@H]4C=C[C@]23O4)c1	-3.0
COC(=O)c1ccc(C(=O)OC)c(NC(=O)CSc2n[nH]c(N)n2)c1	-0.7
Cc1cccc(COC(=O)CCCNC(=O)c2ccc(Cl)cc2)c1	14.1
Cc1noc(C)c1C(=O)N(CC(=O)Nc1ccc(Cl)c(C(F)(F)F)c1)Cc1ccco1	-2.1
Cc1cc(C)c(NC(=O)CSCc2c(C)noc2C)c(C)c1	-6.7
Nc1nc(N(Cc2ccccc2)Cc2ccccc2)nc(C(F)(F)F)n1	11.8
CCCC(=O)Nc1cc(S(=O)(=O)N2CCCCC2)ccc1N1CCOCC1	-1.8
COCCN(C(=O)CSc1nnc(-c2ccccc2F)n1N)c1c(N)n(Cc2ccccc2)c(=O)[nH]c1=O	1.1
Cn1c(CC(=O)NNC(=O)c2cccnc2)nc2ccccc21	-0.3
Cc1ccc(NC(=O)C2=NNC(=O)CC2)cc1S(=O)(=O)Nc1ccc(SC(F)F)cc1	-8.0
CC1(C)NC(=O)N(CC(=O)NNC(=O)c2ccccc2F)C1=O	-8.7
CC1CCN(C(=O)CCNC(=O)c2ccccc2)CC1	-7.1
COc1ccc(S(=O)(=O)N(C)C[C@H]2Oc3ccc(NC(=O)Cc4ccccc4)cc3C(=O)N([C@H](C)CO)C[C@@H]2C)cc1	-8.0
CC1CCN(C(=O)c2cc(S(=O)(=O)N3CCOCC3)ccc2N2CCCC2)CC1	-0.1
CCN(CC)c1ccc(S(=O)(=O)N2CCOCC2)cc1NC(=O)Nc1ccccc1	-4.2

6 entries picked at random from those above, as already listed:
SMILES	Mtb bLac sens
Cc1cc(C)c(NC(=O)CSCc2c(C)noc2C)c(C)c1	-6.7
Cn1c(CC(=O)NNC(=O)c2cccnc2)nc2ccccc21	-0.3
CCN(CC)c1ccc(S(=O)(=O)N2CCOCC2)cc1NC(=O)Nc1ccccc1	-4.2
CC1(C)NC(=O)N(CC(=O)NNC(=O)c2ccccc2F)C1=O	-8.7
CC1CCN(C(=O)CCNC(=O)c2ccccc2)CC1	-7.1
Nc1c(N(Cc2ccco2)C(=O)COc2ccccc2Cl)c(=O)[nH]c(=O)n1Cc1ccccc1	4.1

The list goes on:
SMILES	Mtb bLac sens
COc1ccc(NC(=O)c2ccccc2Oc2ccccc2)c(OC)c1	97.9
CCCCCCCCCCCCCCCC(=O)NCCO	-1.5
CCc1ccc(S(=O)(=O)Nc2ccncc2)cc1	-7.1
COc1ccccc1CNC(=O)Cn1cc(Br)ccc1=O	-11.8
C#CCOCCOCCOCCNc1nc(N2CCN(C(=O)Cn3cc(CCCCN)nn3)CC2)nc(N2CCN(C(=O)[C@H]([C@@H](C)CC)n3cc(CCCCN)nn3)CC2)n1	-8.9
CCCCNC(=O)Cn1nc(C)c(S(=O)(=O)N2CCOCC2)c1C	-4.3
CC(C)C[C@@H](CN1C(N)=NC[C@@H]1C)NC(=O)CC12CC3CC(CC(C3)C1)C2	3.1
CC(C)Cc1nnc(NC(=O)c2ccc(N3CCCC3=O)cc2)s1	0.8
COc1ccc(Cn2c(=O)oc3ccc(C)cc32)cc1	-11.6
O=C(CN1C(=O)C(=O)N(C2CCCC2)C1=O)NCCc1ccc(F)cc1	-10.8
CN(C(=O)COC(=O)c1ccc(Cl)c(S(=O)(=O)N2CCCCCC2)c1)C1CCS(=O)(=O)C1 (stereo not given)	-3.1
CC1CCCCC12NC(=O)N(CC(=O)NCCc1c[nH]c3ccccc13)C2=O (stereo not given)	-4.6

Structural class: the entries above containing a furan ring, fused or not
SMILES	Mtb bLac sens
Cc1occc1C(=O)N/N=C/c1cccc2ccccc12	-3.4
COCC(C)n1c(C)cc(C(=O)CSc2nnc(-c3ccco3)o2)c1C (stereo not given)	5.8
Nc1c(N(Cc2ccco2)C(=O)COc2ccccc2Cl)c(=O)[nH]c(=O)n1Cc1ccccc1	4.1
O=C(c1cc2ccccc2o1)N1CCN(S(=O)(=O)c2ccc(F)c(F)c2F)CC1	-5.8
Cc1noc(C)c1C(=O)N(CC(=O)Nc1ccc(Cl)c(C(F)(F)F)c1)Cc1ccco1	-2.1

This is a subset; count on the stated rates, not on these rows.
